From PubChem BioAssay
Choline anaer gr = inhibitors of anaerobic choline-dependent gram-negative bacterial growth. calls only. Gram-negative bacterium anaerobic choline minimal medium, absorbance growth; hits give low values; many inactives read as strong as hits in the columns shown. actives 0.2% (n = 55,000);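 active means growth z-score on choline under -2 at 7 or 20 h with little or no fall on glycerol, limits in tiers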;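 further: stock transfer was 300 nL into about 50 µL; the organism is E. coli; final concentration not given here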
Choline anaer gr early = also measured in Choline anaer gr; calls as there; z-score; measured here: choline growth z-score, timepoint 1;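 score of optical density at 7 h as mean of two plates; lower means less growth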
* = called active by the depositor; i = inactive; & = joins results of further samples.

SMILES | Choline anaer gr | Choline anaer gr early
CC1=C(c2ccccc2)S(=O)(=O)N=C1N1CCC(NC(=O)NC(C)(C)C)CC1 | i | -0.71
Cc1cc(-c2c(C)sc(C)c2S(=O)(=O)Nc2cccc(Cl)c2)n[nH]1 | i | 0.42
Cc1cc(C)c(NC(=O)C2Nc3ccc(Cl)cc3S(=O)(=O)N2)c(C)c1 (stereo not given) | i | 0.49
O=C(Nc1ccccc1)c1cccc(Nc2ncc(-c3cccc(F)c3)cn2)c1 | i | -0.11
COc1ccc(-c2nn3c(-c4cccnc4)nnc3s2)cc1 | i | -0.61
Cc1cc(NC(=O)C2CCCN(S(=O)(=O)c3cc(-c4noc(C)n4)cs3)C2)no1 (stereo not given) | i | -0.8
CCn1c(=O)c2sccc2n2c(CCC(=O)N3CCN(c4ccccn4)CC3)nnc12 | i | 0.03
CC1CCN(C(=O)c2snc3c(=O)n(C4CC4)c(=O)[nH]c23)CC1 | i | 1.3
Cc1ccc2nc3c(cc2c1)CCN3C(=O)c1ccc(Br)cc1 | i | 1.5
CNC(=O)c1c(NC(=O)c2ccc(S(=O)(=O)N3CCOCC3)cc2)sc2c1CCC2 | i | -0.33
O=C1CCCN1CCCNc1nc(C2CC2)nc2c1CCC2 | i | 0.22
CC1CCCCN1S(=O)(=O)C1CCS(=O)(=O)C1 (stereo not given) | i | 0.16
Cc1ccc(N2C(=O)Nc3ccccc3S2(=O)=O)cc1 | i | -0.12
O=S1(=O)C[C@H](N2CCN(c3ccccn3)CC2)[C@@H](S(=O)(=O)c2ccccc2)C1 | i | 0.06
O=C(CCc1nnc2ccc(-c3ccc(Cl)cc3)nn12)N1CCN(c2ccccc2F)CC1 | i | 0.82
Cn1cnc(S(=O)(=O)NCc2nnc(C(=O)Nc3ccc(F)cc3F)s2)c1 | i | -1.1
Cc1cc(C)c2c(-n3cccc3)c(C(=O)Nc3ccc(F)cc3F)sc2n1 | i | 0.75
COc1cccc(NC(=O)C2CCCCN2S(=O)(=O)c2ccc(F)cc2)c1 (stereo not given) | i | -0.13
CCOCCCNC(=O)C1c2c(n(C)c3ccccc23)SCC(=O)N1c1ccc(OCC)cc1 (stereo not given) | i | -0.26
CN(C)c1ccc(CNc2nc(-c3nnc(-c4ccccc4)o3)nc3ccccc23)cc1 | i | -0.68
CCNC(=O)N1CCCC(c2cccc(C(=O)NCCN3CCCCC3C)c2)C1 (stereo not given) | i | -0.29
O=C(CN1C(=O)CCc2cc(S(=O)(=O)N3CCOCC3)ccc21)Nc1ccc(F)c(Cl)c1 | i | 0.19
CCc1c(C)nc2nc(-c3ccccc3)nn2c1Nc1cccc(OC)c1 | i | -0.24
COc1cccc(C(=O)Nc2c(-c3ccc(F)cc3)nc3ccccn23)c1OC | i | 2
Cc1cc(=O)[nH]c2c1c(C)nn2-c1ccc(Br)cc1 | i | 0.45
COc1ccc(NC(=O)c2ccc(NC(=O)N3CCCCc4ccccc43)cc2)cc1 | i | -1
O=c1[nH]c(-c2ccccc2O)nc2c1Cc1cc(F)ccc1O2 | i | -0.05
O=C(CCc1nnc2n(Cc3ccccc3)c(=O)c3ccccc3n12)N1CCN(c2ccc(F)cc2)CC1 | i | 0.26
CC(C)Oc1ccc(CNc2ncnc3oc4c(c23)CCCC4)cc1 | i | 0.19
CCc1ccc(NC(=O)C(CC)Sc2nnc(-c3ccccc3NC(C)=O)c(=O)[nH]2)cc1 (stereo not given) | i | 0.66
CCC(Oc1cccc(C)c1)c1nc2ccccc2[nH]1 (stereo not given) | i | 1.7
CC1(C)S[C@@H]2C(NC(=O)C(C(=O)O)c3ccccc3)C(=O)N2C1C(=O)O (stereo not given in full) | i | 0.57
CN1CCCN(C(c2ccccc2)c2ccc(Cl)cc2)CC1 (stereo not given) | i | -0.15
O=C(Nc1ccccc1F)c1ccccc1OCc1nc(-c2ccccc2)no1 | i | 1.9
O=C(c1c[nH]c2ccc(Cl)cc2c1=O)N1CCSCC1 | i | -0.22
Cc1nc(Oc2cccc(F)c2)c2c(C)c(C)sc2n1 | i | 0.21
CC(C)(C)C(=O)N1CCCC1c1ccccc1Cl (stereo not given) | i | -0.39
O=S(=O)(c1cccn2c(SCc3ccccc3)nnc12)N1CCCC1 | i | 0.19
Cc1cccc(CNC(=O)CCc2ccc(-n3cnc4cccnc43)cc2)c1 | i | -0.03
Cc1cc(C)n(-c2nc(CC(=O)N3CCCCC3)cs2)n1 | i | 0.4
O=S(=O)(c1ccc(-c2cnc(C3CCC3)o2)s1)N1CCOCC1 | i | -0.1
COc1ccc(-c2nnc3sc(-c4c[nH]c5ccccc45)nn23)cc1OC | i | -0.46
O=C(O)c1ccccc1SCc1cc(=O)n2nc(-c3ccccc3Cl)sc2n1 | i | -0.58
Cc1cc(C(=O)Nc2ccc(F)cc2)c2c(C)nn(-c3ccccc3)c2n1 | i | -1.3
COc1ccccc1CN1CCNC(=O)C1CC(=O)O (stereo not given) | i | -0.1
CC(C)c1ccc(-c2cc(-c3nc(-c4ccccc4)no3)[nH]n2)cc1 | i | 1.4
COc1ccc(C2CC(=O)N(c3ccc(F)c(Cl)c3)C(=O)C2)cc1OC | i | -0.52
CN(C)c1ccc(C(=O)NCCn2c(C(F)(F)F)nc3cccnc32)cc1 | i | 0.34
Cc1ccc(N2CC(C(=O)NCCS(=O)(=O)N3CCc4ccccc4C3)CC2=O)cc1C (stereo not given) | i | 0.87
CC1CC(=O)Nc2ccccc2N1C(=O)c1ccccc1 (stereo not given) | i | 0.17
COc1ccccc1C(=O)NCc1ccc2c(c1)N(C(=O)c1ccc(Cl)cc1)CC2 | i | -0.4
O=C(NCCc1ccccc1)Nc1ccc2c(c1)N(Cc1ccccc1)C(=O)c1ccccc1S2 | i | 0.81
O=C(Cn1nc(S(=O)(=O)c2ccc(Br)cc2)ccc1=O)NC1CCCC1 | i | 0.23
Cc1ccc(-n2ccc(=O)c(-c3nc(-c4ccccc4Br)no3)n2)cc1C | i | 0.82
CCSc1nnc(NC(=O)C2CCC(=O)N2S(=O)(=O)c2ccc(C)cc2)s1 (stereo not given) | i | -1.1
O=C(NCc1ccc(Cl)cc1)C1CCN(c2nc3ccccc3n(Cc3ccccc3)c2=O)CC1 | i | -0.29
O=C1CN(Cc2ccc(Cl)cc2)S(=O)(=O)c2ccccc2N1Cc1ccccc1 | i | -0.01
CC(C)CSc1nc2c(sc3ncccc32)c(=O)n1Cc1ccccc1 | i | -1.2
CCCCCNC(=O)C1CCC(Cn2c(=O)c3sccc3n(CC(=O)NC(C)C)c2=O)CC1 (stereo not given) | i | -0.08
CC1CNc2c(cccc2S(=O)(=O)N[C@@H](CCCN=C(N)N)C(=O)N2CC[C@@H](C)C[C@@H]2C(=O)O)C1 (stereo not given in full) | i | 0.72&0.27

Additional records:
SMILES | Choline anaer gr | Choline anaer gr early
COc1ccccc1N1CCN(S(=O)(=O)c2cc(-c3nc(C(C)C)cs3)cs2)CC1 | i | 0.25
Cc1ccc(-c2ccc(=O)n(C(C)C(=O)Nc3ccccc3)n2)cc1S(=O)(=O)N1CCOCC1 (stereo not given) | i | 0.91
CCOC(=O)C1CCCc2c1[nH]c1c(C(=O)NCc3ccc(OC)cc3)cccc21 (stereo not given) | i | 0.51
Cc1ccc(CNS(=O)(=O)c2c(C)nc3sc(C)nn23)o1 | i | 0
O=C1CCC(=O)N1c1nc2n(n1)C(c1ccccc1Cl)C=C(c1ccc(Br)cc1)N2 (stereo not given) | i | 0.41
O=C(NCc1ccc2c(c1)OCO2)C1CCC(CNS(=O)(=O)c2cccc3cccnc23)CC1 (stereo not given) | i | 0.28
O=S(=O)(CCc1noc(C2CCCC2)n1)c1ccccc1 | i | 0.08
CCOC(=O)c1c(C)[nH]c(C)c1S(=O)(=O)NCC(=O)Nc1cccnc1 | i | -0.55
CCc1cccc(-n2nnc(-c3nc(-c4ccccc4)no3)c2C)c1 | i | 0.43
CC(C)CNC(=O)N1CCCCCC1c1cccs1 (stereo not given) | i | 0.75
Cc1ccc(Cl)cc1NC(=O)CC1NCCNC1=O (stereo not given) | i | 0.45
CC(C)C(=O)N1c2ccccc2NC2=C(C(=O)CC(c3ccccc3)C2)C1c1ccccc1 (stereo not given) | i | 0.59
CCN(CC)c1ccc(-c2noc(CN3CCSCC3)n2)cn1 | i | -1.3
Cn1c(=O)n(C)c2cc(NC3=C(C(=O)Nc4ccc(F)cc4)S(=O)(=O)c4ccccc43)ccc21 | i | 0.02
CCOc1ccc(-c2c(C)nn3c(C)c(C(=O)Nc4cccc(OC)c4)cnc23)cc1OCC | i | -0.6
CCOc1ccc(C(=O)N(CC2COc3ccccc3C2)C(C)C)cc1OCC (stereo not given) | i | 0.57
CCCOC(=O)c1c(-c2ccccc2)nc(CC)c(C(=O)SCC)c1CCC | i | 0.65
CC[C@H](C)NC(=O)CCc1nc2sc3c(c2c(=O)[nH]1)CCCCC3 | i | 0.89
Cc1nc(CNC(=O)c2ccc(-c3noc(C4CC4)n3)cc2)no1 | i | -0.33
Cc1ccc(NC(=O)CCn2cnc3cc(S(=O)(=O)N4CCCC4)ccc32)nc1 | i | 0.41
O=C(Nc1cccc(F)c1)N1CCCN(c2nc3cc(F)ccc3n3cccc23)CC1 | i | -0.24
COc1cc2[nH]c3c(=O)n(CCC(=O)NCCc4c[nH]c5ccccc45)cnc3c2cc1OC | i | -0.65
COc1ccc(C2CC(=O)N(c3ccc(Cl)cc3)C(=O)C2)cc1 | i | 0.92
COC(=O)c1cc(C(=O)NCc2ccccc2)c(=O)[nH]c1C | i | 0.19
O=c1c2cc3c(cc2nc(SCc2nc(-c4cccc(Cl)c4)no2)n1C1CC1)OCO3 | i | -2.1
Cc1ccccc1OCCn1c(C2CCCO2)nc2ccccc21 (stereo not given) | i | 0.21
CC(=O)N1CCc2cc(N3CC(C(=O)NC(C)C)CC3=O)ccc21 (stereo not given) | i | 0.28
CCCNC(=O)N1CCc2cc(S(=O)(=O)NC(C)(C)CC)ccc21 | i | -0.03
Cn1c(=O)[nH]c2cc(-c3noc(-c4ccc(F)cc4)n3)ccc21 | i | -0.26
CCCc1nc2nc(C)c(NS(=O)(=O)c3ccc(OC)cc3)c(=O)n2[nH]1 | i | -0.15
Cn1c(=O)c2c(C(=O)N3CCOCC3)cc(=O)n(C)c2n(C)c1=O | i | -1.2
COc1ccc2[nH]cc(CCNC(=O)CCCn3c4ccccc4c4cnn(C)c(=O)c43)c2c1 | i | -0.96
Cn1c(=O)n(CC(=O)O)c(=O)c2c1nc1n2CCCN1c1ccc(F)cc1 | i | 0.15
CN(Cc1ccccc1)S(=O)(=O)c1csc(C(N)=O)c1 | i | 0.84
Cc1cccc(-c2nnc(-c3nc(NC4CCS(=O)(=O)C4)c4ccccc4n3)o2)c1 (stereo not given) | i | 0.02
Cc1ccnc(NC(=O)CN2C(=O)CCc3cc(S(=O)(=O)N4CCCCC4C)ccc32)c1 (stereo not given) | i | -0.06
CCc1ccc(NC(=O)NCc2c(C)nn(CC)c2C)cc1 | i | -0.84
O=C(NC1CC1)c1ccc(CN2C(=O)CCn3nc(-c4cccc(Cl)c4)cc32)cc1 | i | 1.1
Cc1cc(N(C)C)nc(Nc2ccc(NS(C)(=O)=O)cc2)n1 | i | -0.16
CC(C)c1cc(C2CCCN2S(=O)(=O)c2ccc3c(c2)CCCC3)on1 (stereo not given) | i | 0.82
O=C(Nc1ccc(C2(C(=O)NC3CCCCC3)CC2)cc1)c1ccc(Cl)cc1 | i | 0.66
O=C(CSc1nnc2n1CCN2c1ccccc1)c1ccccc1 | i | 0.36
O[C@H]1[C@H](O)[C@@H](O)[C@@H]2O[C@@H]2[C@@H]1O | i | 0.61
CCCCN(CC)S(=O)(=O)c1ccc2c(c1)N(Cc1noc(C)n1)C(=O)CO2 | i | 0.18
Cn1c(=O)n(C)c2cc(N3CCOCC3)c(NC(=O)c3sc4ccccc4c3Cl)cc21 | i | 1.1
CC(=O)N1CCC2(CC1)OC(=O)C(C)=C2C(=O)N1CCN(C2CCCCC2)CC1 | i | -0.44
Cc1cccc(OCc2nc(C)c(C(=O)Nc3ccccc3C)s2)c1 | i | 0.61
CC(=O)Nc1ccc(S(=O)(=O)Nc2ncn(Cc3ccc(Cl)cc3)n2)cc1 | i | 0.19
Cc1ccc(-c2noc(CCC(=O)Nc3ccc4nc(NS(C)(=O)=O)sc4c3)n2)cc1 | i | 1.4
Cc1cc(Cl)ccc1NS(=O)(=O)c1cc(-c2nc(C)c(C)s2)sc1C | i | -1.7

Of the compounds above, 15 contain a thiophene ring, fused or not.
SMILES | Choline anaer gr | Choline anaer gr early
Cc1cc(-c2c(C)sc(C)c2S(=O)(=O)Nc2cccc(Cl)c2)n[nH]1 | i | 0.42
Cc1cc(NC(=O)C2CCCN(S(=O)(=O)c3cc(-c4noc(C)n4)cs3)C2)no1 (stereo not given) | i | -0.8
CCn1c(=O)c2sccc2n2c(CCC(=O)N3CCN(c4ccccn4)CC3)nnc12 | i | 0.03
CNC(=O)c1c(NC(=O)c2ccc(S(=O)(=O)N3CCOCC3)cc2)sc2c1CCC2 | i | -0.33
Cc1cc(C)c2c(-n3cccc3)c(C(=O)Nc3ccc(F)cc3F)sc2n1 | i | 0.75
Cc1nc(Oc2cccc(F)c2)c2c(C)c(C)sc2n1 | i | 0.21
O=S(=O)(c1ccc(-c2cnc(C3CCC3)o2)s1)N1CCOCC1 | i | -0.1
CC(C)CSc1nc2c(sc3ncccc32)c(=O)n1Cc1ccccc1 | i | -1.2
CCCCCNC(=O)C1CCC(Cn2c(=O)c3sccc3n(CC(=O)NC(C)C)c2=O)CC1 (stereo not given) | i | -0.08
COc1ccccc1N1CCN(S(=O)(=O)c2cc(-c3nc(C(C)C)cs3)cs2)CC1 | i | 0.25
CC(C)CNC(=O)N1CCCCCC1c1cccs1 (stereo not given) | i | 0.75
CC[C@H](C)NC(=O)CCc1nc2sc3c(c2c(=O)[nH]1)CCCCC3 | i | 0.89
CN(Cc1ccccc1)S(=O)(=O)c1csc(C(N)=O)c1 | i | 0.84
Cn1c(=O)n(C)c2cc(N3CCOCC3)c(NC(=O)c3sc4ccccc4c3Cl)cc21 | i | 1.1
Cc1cc(Cl)ccc1NS(=O)(=O)c1cc(-c2nc(C)c(C)s2)sc1C | i | -1.7

The list is partial; the hit share may differ from the screen's.
